High-throughput results as filed in PubChem.
Bead autofluor – compound fluorescence in toxin protease inhibitor counterscreen; compound autofluorescence counterscreen, microsphere flow cytometry; active compounds read high; fluorescence intensity (no concentration beside the values); 360,000 tested, 3.1% active; AID 624483;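 active = at least 3 SD above the mean of all compounds, about 16000 in these data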;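 note: 100 nL of 1 mM stock went into each well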
* hit, by the source's call.

SMILES | Bead autofluor
COc1ccc(C2C3C=CC(C3)C2C(=O)O)cc1 (configuration not stated) | 2927
COc1ccc(CN2CCC(C(=O)NC(C)c3cccc4ccccc34)CC2)cc1 (configuration not stated) | 3153
CN(Cc1ccccc1F)c1cc2c(c3c1ccn3C)C1CCC2O1 (configuration not stated) | 5511
CC1(C(=O)Nc2ccc3ccccc3c2)CCC(=O)N1CCc1c[nH]c2ccccc12 (configuration not stated) | 4226
COCCCn1cc(CN2CC(N3CCN(CCN(C)C)CC3)CS2(=O)=O)nn1 (configuration not stated) | 5935
Cc1ccc(NC(=O)C2(C)CCN2Cc2ccc(OC(C)C)cc2)cc1 (configuration not stated) | 3018
CN(Cc1ccccc1)C(=O)c1csc(COCCO)n1 | 3815
O=C(NCc1ccco1)c1ccc(-c2ccc(F)c(F)c2)c2ccoc12 | 3406
O=NN(CCF)C(=O)NC1CCC(=O)NC1=O (configuration not stated) | 6174
COCc1cccc(-c2csc(C(C)(O)c3cccc(F)c3)n2)c1 (configuration not stated) | 3691
Cn1nc(C(C)(C)C)cc1C(=O)N1CCCCC1c1cc(C(=O)NCc2ccc(F)cc2)no1 (configuration not stated) | 3888
COc1ccccc1NC(=O)Cc1nc(=O)[nH]c(=O)[nH]1 | 3504
O=C(O)C1C=CC(C(=O)O)c2ccccc21 (configuration not stated) | 2891
Cc1nnc(Cc2ccco2)c2n[nH]c(C)c12 | 3004
CC1(C(=O)Nc2ccc3c(c2)OCCO3)CCC(=O)N1CCOc1ccccc1 (configuration not stated) | 6012
O=[N+]([O-])c1cc2ccccc2c(O)c1O | 3754
C[C@H](CO)N1C[C@H](C)[C@H](CN(C)C(=O)Nc2ccc(C(F)(F)F)cc2)Oc2ncc(Br)cc2C1=O | 3651
CC1(C(=O)N2CCN(C(=O)c3ccco3)CC2)CCN1Cc1ccccc1OC(F)F (configuration not stated) | 2934
COc1ccc(SCC(O)Cn2c3ccccc3c3ccccc32)c(OC)c1 (configuration not stated) | 5862
CCc1nc2c(OCc3ccccc3)cccn2c1N(C)C(C)=O | 2971
Cc1ccc2c(=O)n3c(nc2c1)C(C)NC(=O)c1cccnc1-3 (configuration not stated) | 3452
CCCCn1c(N)c(N(CCOC)C(=O)c2oc3c(Cl)cccc3c2C)c(=O)[nH]c1=O | 3779
CC(=O)N1CCCC(C)(C(=O)Nc2cccc(OC(C)C)c2)C1 (configuration not stated) | 3696
COCCNC(=O)c1[nH]c(C(F)(F)F)nc1-c1ccccc1 | 6961
CCCc1cc(=O)oc2cc(C)cc(OCC(=O)N3C[C@H]4C[C@@H](C3)c3cccc(=O)n3C4)c12 | 5218

Random excerpt: four records from the list.
SMILES | Bead autofluor
COc1ccc(C2C3C=CC(C3)C2C(=O)O)cc1 (configuration not stated) | 2927
O=C(O)C1C=CC(C(=O)O)c2ccccc21 (configuration not stated) | 2891
O=NN(CCF)C(=O)NC1CCC(=O)NC1=O (configuration not stated) | 6174
CC1(C(=O)Nc2ccc3c(c2)OCCO3)CCC(=O)N1CCOc1ccccc1 (configuration not stated) | 6012

Continuation:
SMILES | Bead autofluor
COCCNC(=O)C1(C)CCN(C(=O)/C=C/c2ccccc2)C1 (configuration not stated) | 3896
Cn1c(N)c(C(=O)COC(=O)C2Cc3ccccc3CN2S(C)(=O)=O)c(=O)n(C)c1=O (configuration not stated) | 3949
O=C(NCc1ccccc1)c1ccc(-c2cn[nH]c2)c2ccoc12 | 3750
CC1(C(=O)Nc2cccnc2)Cc2c(-c3ccc4c(c3)OCO4)ccnc2O1 (configuration not stated) | 3716
CC1=C(C(=O)N2CCOCC2)CC(CC(=O)NCCCCc2ccccc2)C(=O)N1CCC1=CCCCC1 (configuration not stated) | 3022
CC(C)CNC(=O)c1cccc2c(-c3cccnc3)coc12 | 3666
C[C@H](CO)N1C[C@H](C)[C@@H](CN(C)S(=O)(=O)c2cn(C)cn2)OCc2cnnn2CCCC1=O | 3531
CCCS(=O)(=O)NC(=O)C1(C)CCCN(C(=O)c2oc3ccccc3c2C)C1 (configuration not stated) | 3668
Cc1cccc(C(=O)OCC(=O)Nc2sccc2C(N)=O)c1C | 3572
CC(C)C[C@H]1CNC(=S)N1C[C@H]1CCCN1C[C@H](CC(C)C)N1C[C@H](Cc2ccccc2)N(CCc2ccccc2)C1=S | 5250
C[C@@H]1CCCCO[C@@H](CN(C)C(=O)Nc2ccc3c(c2)OCO3)[C@@H](C)CN([C@H](C)CO)C(=O)c2cc(N(C)C)ccc2O1 | 3311
O=C(Nc1cccc(Oc2ccccc2)c1)C1Cc2c(-c3cccc(F)c3)ccnc2O1 (configuration not stated) | 2854
Cc1cccc(C)c1-n1nnnc1C(c1ccnc2ccccc12)N1CCC2(CC1)C(=O)NCN2c1ccccc1 (configuration not stated) | 5081
C[C@H](CO)N1C[C@H](C)[C@H](CN(C)C(=O)Nc2ccccc2F)OCc2cnnn2CCCC1=O | 4006
COc1ccc(CNC(=O)c2cn(Cc3ccc(OC(C)=O)cc3)c(=O)s2)cc1 | 4303
COCCN1C(=O)c2ccccc2C1c1nnnn1C(C)C (configuration not stated) | 4235
COc1ccc(C(C)C)cc1-c1cc(C(=O)NCc2cccc(C(F)(F)F)c2)[nH]n1 | 3650
CCOC(=O)C1=CCC(c2ccc(C#N)cc2)N(S(=O)(=O)c2ccc(C)cc2)C1 (configuration not stated) | 6358
COc1ccc(CN2CCN(C(=O)c3ccccc3C(=O)c3ccccc3)CC2)cc1F | 3669
C[C@H](NC(=O)c1ncn2c1c(=O)[nH]c1ccccc12)c1ccccc1 | 3534
COc1ccc(OC)c(N(CCN2C(=O)c3ccccc3C2=O)C(=O)CCl)c1 | 3415
Cc1cccc(C)c1NC(=O)c1ccc(-c2cc(F)ccc2F)o1 | 3388
CC(C)[C@H](NC(=O)c1ccc(Cl)cc1)C(=O)Nc1cccc(S(=O)(=O)N2CCOCC2)c1 | 3750
CN1CCC(OC2c3ccccc3CCc3ccccc32)CC1 | 3967
COc1ccccc1N=NNc1ccccc1OC | 4422

Five structures from above, ordered by SMILES length, largest number first.
SMILES | Bead autofluor
C[C@H](CO)N1C[C@H](C)[C@@H](CN(C)S(=O)(=O)c2cn(C)cn2)OCc2cnnn2CCCC1=O | 3531
COCCCn1cc(CN2CC(N3CCN(CCN(C)C)CC3)CS2(=O)=O)nn1 (configuration not stated) | 5935
COc1ccc(SCC(O)Cn2c3ccccc3c3ccccc32)c(OC)c1 (configuration not stated) | 5862
O=C(NCc1ccccc1)c1ccc(-c2cn[nH]c2)c2ccoc12 | 3750
CN(Cc1ccccc1F)c1cc2c(c3c1ccn3C)C1CCC2O1 (configuration not stated) | 5511

Next section.
SMILES | Bead autofluor
CC1(C(=O)NCc2ccccc2)CCC(=O)N1C1CCN(Cc2ccccc2)CC1 (configuration not stated) | 5316
CCOC(=O)[C@]12Cc3cc(OC)ccc3[C@H]1N(CC(=O)OC)C(=O)c1cc(OC)ccc12 | 5268
CC(C)n1c(=O)c2ccccc2n1Cc1cn(CCc2c[nH]c3ccccc23)nn1 | 5371
CN1OC[C@@H]2CN(C(=S)Nc3ccc(C#N)cc3)[C@H](c3ccc(N4CCCCC4)cc3)C[C@@H]21 | 5453
Cc1ccc2nc(-c3ccco3)c(Cc3cccc(F)c3)n2c1 | 6413
CCc1nc2c(OCc3ccccc3)cccn2c1N(C)C(=O)C(C)C | 2845
Cn1c(=O)c2cc(NC(=O)Nc3cccnc3)ccc2n1-c1ccc(C(C)(C)C)cc1 | 3851
COC(=O)[C@H](CC(C)C)NS(=O)(=O)c1ccc(F)cc1Br | 3653
COc1ccccc1Cc1c(-c2ccco2)nc2ccc(C)cn12 | 5359
O=C1C(=Cc2cn(-c3ccccc3)nc2-c2ccc(OCc3ccc(Cl)cc3)cc2)SC(=S)N1CCS(=O)(=O)O | 3288
O=C1NC(Cc2ccc(O)cc2)c2nc3ccc(Cl)cc3c(=O)n2-c2cc3ccccc3cc21 (configuration not stated) | 3008
CN(C)c1cccc(-c2cc(Nc3ccc(C(C)(C)C)cc3)ncn2)c1 | 3955
Cn1c(/N=C(\N)c2ccccc2)nc2ccccc21 | 2925
c1ccc(C2(NC3=NCCO3)CCCCC2)cc1 | 3086
CCCCC[C@@H](C)N1C[C@H](COCc2ccccc2)Oc2cc(N3CCC[C@@H]3COC)ccc2S1(=O)=O | 5322
CC1C(=O)N(Cc2cn(Cc3ccco3)nn2)CCS(=O)(=O)N1Cc1ccc(-c2ccccc2Cl)cc1 (configuration not stated) | 6261
CCN(CC(=O)NC(C)(C)C)C(=O)c1cccc(S(=O)(=O)N2CC3(C)CC2CC(C)(C)C3)c1 (configuration not stated) | 3570
CCOC(=O)c1cnn2c(SC)ncnc12 | 3263
Cn1c(=O)c2cc(NC(=O)NCc3ccc(Cl)cc3Cl)ccc2n1Cc1ccc(F)cc1 | 2773
COc1cc(/C=N/NC(=O)c2ccc3nc[nH]c3c2)cc(OC)c1OC(C)=O | 3596
OCc1cccc(-c2csc(C(O)(c3ccccc3)C(F)(F)F)n2)c1 (configuration not stated) | 3856
Nc1ncnc2c1ncn2[C@@H]1O[C@H](CNC(=O)OC[C@@H](N)Cc2ccccc2)[C@@H](O)[C@H]1O | 5853
Cc1cccc(NC(=O)c2cc([N+](=O)[O-])ccc2N2CCOCC2)c1C | 3853
Cc1cc(N(C)C)cc(C)c1N=Nc1cc[n+]([O-])cc1 | 3809
COc1ccc(N2CCN(C(=O)COC(=O)CC(NC(N)=O)c3ccc(Cl)cc3)CC2)cc1 (configuration not stated) | 3772

Some of the entries above, reformatted.
mol	Bead autofluor
CN1OC[C@@H]2CN(C(=S)Nc3ccc(C#N)cc3)[C@H](c3ccc(N4CCCCC4)cc3)C[C@@H]21	5453
Cc1ccc2nc(-c3ccco3)c(Cc3cccc(F)c3)n2c1	6413

Additional results.
SMILES | Bead autofluor
O=C(CSc1nc2ccccc2c(=O)n1-c1ccc(F)cc1F)NC1CC1 | 2930
CCOC(=O)[C@]12CCC=C1N(Cc1ccc3c(c1)OCO3)C(=O)[C@H](CC(=O)NCCCN1CCCC1=O)C2 | 5769
COC(=O)[C@@]1(Cc2ccc(F)cc2)[C@H]2c3cc(C(=O)N(C)C)n(Cc4cc(C)n(C)n4)c3C[C@H]2CN1C(=O)c1ccccc1 | 5852
COC(=O)N(C)C[C@@H]1OCc2ccccc2-c2c(n(C)c3ccccc23)C(=O)N([C@H](C)CO)C[C@@H]1C | 3168
O=S1(=O)C[C@@H](N2CCCC2)[C@H](COCc2ccccc2)N1 | 5919
COC(=O)c1csc(C2OC(CO)C(O)C2O)n1 (configuration not stated) | 3839
CC(=O)NCCNc1nc(NCC2CC2)nc2cc(-c3ccccc3)sc12 | 3924
c1ccc(N2[C@@H]3CC[C@H]2c2ccccc2C3)cc1 | 3737
NC(=O)C1CCCN(C(=O)c2[nH]c(C(F)(F)F)nc2-c2ccccc2)C1 (configuration not stated) | 6160
Cc1ccc2cccc(OC(=O)c3c(F)cccc3Cl)c2n1 | 6030
CC(C)=CC(=O)N1CCC(Oc2cccc(C(=O)NCc3ccccn3)c2)CC1 | 3636
CCNC(=O)C1(C)CCCN(Cc2cc(-c3ccccc3)n(C)n2)C1 (configuration not stated) | 3722
COc1ccc(-c2c(-c3ccsc3)oc3c2C(O)CCC3)cn1 (configuration not stated) | 5775
CC1CCCN(CC(=O)Nc2ccc(S(=O)(=O)N3C(C)CCCC3C)cc2)C1 (configuration not stated) | 3690
CCc1ccc(NC(=O)c2cc(S(=O)(=O)N3CCCC3)ccc2F)cc1 | 3738
Cc1ccc2c(CN(Cc3ccccc3)Cc3ccccc3)cc(=O)oc2c1 | 5588
CN(Cc1ccccc1)C(=O)c1csc([C@@H]2C[C@H](O)[C@@H](CO)O2)n1 | 3700
COc1cc(F)ccc1-c1csc(C(O)c2ccc(F)c(F)c2)n1 (configuration not stated) | 4043
CC(=O)NCC1(c2ccccc2)CCN(CCCC(=O)c2ccc(F)cc2)CC1 | 3692
Cc1ccc(S(=O)(=O)Nc2ccc3c(c2)C(=O)N([C@H](C)CO)C[C@H](C)[C@H](CN(C)C(=O)Nc2cccc4ccccc24)OCCCC[C@@H](C)O3)cc1 | 3859
COC(=O)c1ccc(COC(=O)C2CCN(S(=O)(=O)c3c(C)cc(C)cc3C)CC2)o1 | 3018
O=C1c2cccc3cccc(c23)C(=O)N1CCO | 3600
CC1C(=O)N(Cc2cn(CC3CCCCC3)nn2)CCS(=O)(=O)N1Cc1ccc(-c2ccncc2)cc1 (configuration not stated) | 3329
COc1ccc(C=C2SC(=S)N(CCCN3CCOCC3)C2=O)c(OC)c1 | 3398
O=C(c1ccc2c(c1)CCC2)N1CCN(Cc2ccccc2)CC1 | 4065

Following part:
SMILES | Bead autofluor
COc1cc(OC)cc(-c2noc([C@@H]3O[C@H](CO)[C@@H](O)[C@H]3O)n2)c1 | 3535
C#Cc1ccc(NC(=O)C2(C)CCN2C(=O)Cc2ccc(C(C)C)cc2)cc1 (configuration not stated) | 3879
CC12CCC3C(CCC4CC(O)CCC43C)C1CC(=O)C2 (configuration not stated) | 5871
CC1CCCCN1CCNC(=O)c1ccc2c(c1)N(Cc1cccc(Cl)c1)C(=O)c1ccccc1S2(=O)=O (configuration not stated) | 3734
COc1ccccc1N(C)c1cc2c(c3c1ccn3C)C1CCC2O1 (configuration not stated) | 6353
O=C1CC(c2ccccc2)CC2=C1C1(CCCC1)N=C(Nc1nc3ccccc3o1)N2 (configuration not stated) | 2899
CCc1cc(C(=O)Nc2cc(S(=O)(=O)N3CCCCC3)ccc2N2CCN(C)CC2)sc1C | 2996
Cc1cc(C(=O)OC(C)C(=O)NC2CCCCC2C)c2ccccc2n1 (configuration not stated) | 3877
O=C(NCc1cccnc1)c1ccc(-c2ccc(F)c(F)c2)c2ccoc12 | 3739
O=C(Nc1ccc(OCc2ccccc2)cc1)Nc1nnc([C@H]2C[C@H](O)[C@@H](CO)O2)s1 | 3467

A section of the results above, as a working copy:
SMILES | Bead autofluor
O=C1CC(c2ccccc2)CC2=C1C1(CCCC1)N=C(Nc1nc3ccccc3o1)N2 (configuration not stated) | 2899
CCc1cc(C(=O)Nc2cc(S(=O)(=O)N3CCCCC3)ccc2N2CCN(C)CC2)sc1C | 2996
Cc1cc(C(=O)OC(C)C(=O)NC2CCCCC2C)c2ccccc2n1 (configuration not stated) | 3877
O=C(NCc1cccnc1)c1ccc(-c2ccc(F)c(F)c2)c2ccoc12 | 3739
O=C(Nc1ccc(OCc2ccccc2)cc1)Nc1nnc([C@H]2C[C@H](O)[C@@H](CO)O2)s1 | 3467

The list is partial, so the mix of outcomes need not match the whole.
